# Hsc70 ATP site – Hsc70 inhibitors, probe displacement, primary screen, biochemical, fluorescence polarization (AID 568); Hsc70 fluorescence polarization, probe displacement; higher % means a stronger effect; strong numbers were not always called active; one-dose displacement, % at 20 µM; IC50 in µM for titrated hits; 83,000 tested, under 10 active;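 active = displacement above 50% without optical interference and an IC50 on retest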;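 also: ATPase domain with a fluorescein-tagged ATP probe; 0% = vehicle and 100% = excess ADP; read after one hour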
# MT1-MMP reporter – inhibitors of MT1-MMP promoter transcription, cell-based, luciferase reporter, luminescence (AID 618) | calls from a first round at 10 µM; hits with a dose series show EC50 in µM | MT1-MMP promoter luciferase reporter cells, luminescence | hit rate 0.62% among 87,000;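 active = over half of the reporter light lost at 10 µM or EC50 under 50 µM; inactive = the rest and hits that failed the dose series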;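 also: actives suppress MT1-MMP promoter-driven transcription so potencies describe inhibitors; HT1080 fibrosarcoma cells; overnight exposure; toxic or luciferase-blocking compounds were not removed from the actives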
# WNV NS2B-NS3 inh – inhibitors of WNV NS2B-NS3 protease, primary screen, biochemical, fluorogenic substrate. fluorogenic substrate Ex360/Em465; hits give low values. AID 577, 2007. hit rate 0.18% among 65,000. Genome polyprotein (West Nile virus), P06935. z-score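 (tested at a level between 10 and 100 µM)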;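 active = z-score at -3 or under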;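 also: score is relative to mean and spread of the compound wells of a plate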
# Target sequence (P06935 1371-1501 limits assumed): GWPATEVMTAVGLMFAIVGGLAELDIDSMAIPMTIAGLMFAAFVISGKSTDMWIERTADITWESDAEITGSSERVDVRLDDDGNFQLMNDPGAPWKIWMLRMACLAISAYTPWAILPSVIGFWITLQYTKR
# Target sequence (P06935 1502-1679 limits assumed): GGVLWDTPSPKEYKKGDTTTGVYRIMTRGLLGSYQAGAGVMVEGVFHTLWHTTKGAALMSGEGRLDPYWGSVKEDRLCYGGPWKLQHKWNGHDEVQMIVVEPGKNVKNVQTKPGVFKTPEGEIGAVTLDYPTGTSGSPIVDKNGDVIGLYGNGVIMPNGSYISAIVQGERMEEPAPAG
# * = called active by the depositor; i = inactive; . = not tested or not shown.
# The opening four entries, ahead of the listing:
SMILES	MT1-MMP reporter	WNV NS2B-NS3 inh	Hsc70 ATP site
CCN1CCN(c2nc3ccccc3nc2C(C#N)C(=O)OC2CCCCC2)CC1 (stereo unspecified)	i	-0.4	0.8%
CC1(c2ccc3c(c2)OCO3)NC(=O)N(CC(=O)Nc2ccc(N3CCOCC3)cc2)C1=O (stereo unspecified)	i	-0.68	-1.4%
COCCNC(=O)c1ccc(Cn2c(=S)[nH]c3cc4c(cc3c2=O)OCO4)cc1	i	-0.09	-4.0%
C=CCn1c(C)cc(C(=O)CSc2nnc(Cc3ccccc3)o2)c1C	i	2.4	0.9%

# This part in full, previewed entries included:
SMILES	MT1-MMP reporter	WNV NS2B-NS3 inh	Hsc70 ATP site
CCN1CCN(c2nc3ccccc3nc2C(C#N)C(=O)OC2CCCCC2)CC1 (stereo unspecified)	i	-0.4	0.8%
CC1(c2ccc3c(c2)OCO3)NC(=O)N(CC(=O)Nc2ccc(N3CCOCC3)cc2)C1=O (stereo unspecified)	i	-0.68	-1.4%
COCCNC(=O)c1ccc(Cn2c(=S)[nH]c3cc4c(cc3c2=O)OCO4)cc1	i	-0.09	-4.0%
C=CCn1c(C)cc(C(=O)CSc2nnc(Cc3ccccc3)o2)c1C	i	2.4	0.9%
CSc1nc(N2CCOCC2)c2c3c(sc2n1)CCCC3	i	0.7	-1.3%
O=S(=O)(NCc1ccccc1Br)c1cccs1	i	0.08	-16%
Nc1nnnn1/N=C/c1cccc(Oc2ccccc2)c1	i	0.5	-0.8%
CCOC(=O)CN1C(=O)NC(C)(c2ccc(OC(F)F)cc2)C1=O (stereo unspecified)	i	-0.39	0.7%
O=C(Cc1ccccc1)Nc1ccc(C(=O)O)cc1	i	0.79	2.4%
CCOC(=O)N1CCN(C(=O)c2ccc(N(Cc3ccc(C)cc3)S(C)(=O)=O)cc2)CC1	i	.	7.3%
CCCOc1cccc(-c2nnc(N)s2)c1	i	0.64	-2.3%
O=c1cc(N2CCOCC2)[nH]c(=O)n1Cc1ccc(F)cc1	i	-0.07	1.5%
CC1CCC(NC(=O)Cn2ncc3ccccc32)CC1 (stereo unspecified)	i	0.05	-4.1%
c1ccc2c(N3CCCC3)nc(-c3ccncc3)nc2c1	i	0.62	2.7%
CCC(C)NC(=O)CO/N=C/c1ccc(C(=O)OC)cc1 (stereo unspecified)	i	.	1.6%
CCOC(=O)c1ccc(N=CC2=C(O)CC(C)(C)CC2=O)cc1	i	1.7	-2.0%
Cc1cc(C)n(CC(=O)N/N=C/c2ccc(C)o2)n1	i	.	2.5%
COc1ccc(C(=O)NC2(C(F)(F)F)C(=O)N(Cc3ccco3)C3=C2C(=O)CC(C)(C)C3)cc1OC (stereo unspecified)	i	.	-9.3%
Cc1ccc(-n2c(C)cn(C(=O)c3ccccc3)c2=S)cc1	i	.	1.5%
Cc1ccc(-n2c(Cc3cccn3C)nnc2SCC(=O)NCc2ccco2)cc1	i	0.01	1.4%
Cc1nn(-c2ccccc2)c2c1/C(=N/O)CC(C)(C)C2	i	0.75	1.0%
O=C(Cn1nc(C(F)(F)F)c2c1CCCC2)NCc1ccco1	i	-0.33	-0.6%
COc1ccc(C(=O)N2CCN(c3ccc(C)cc3)CC2)cc1OC	i	-0.72	11%
COc1ccc(-n2c(=S)[nH]c3cc(C(=O)NCCCN4CCCC4=O)ccc3c2=O)cc1	i	-0.15	-7.0%
COC(=O)C1(C(=O)OC)Sc2ccccc2C1=O	i	-0.29	-1.3%
Cc1ccc(CCNC(=O)CC2Oc3ccc(C)cc3NC2=O)cc1 (stereo unspecified)	i	-2.8	5.4%
CC(C)CC(NS(=O)(=O)c1ccc2c(c1)oc(=O)n2C)C(=O)N1CC=C(c2ccccc2)CC1 (stereo unspecified)	i	0.36	8.9%
CCOc1ccc(Cl)cc1S(=O)(=O)NCc1cccnc1	i	.	-1.8%
CCOC(=O)c1sc(C)c2c1NC(C)(c1cccc3ccccc13)NC2=O (stereo unspecified)	i	.	7.2%
COc1ccc(NC2=NC3(CCCCC3)N=C(N)N2)cc1	i	-0.71	1.5%
CC1(C)C(c2ccco2)=[N+]([O-])C2(CCCCC2=O)N1O (stereo unspecified)	i	.	8.4%
COc1ccc(OCCOC(=O)Nc2ccccc2)cc1	i	-0.8	4.3%
Cc1cccc(NC(=O)c2oc3c(c2C)C(=O)CC(C)(C)C3)n1	i	-0.31	1.0%
COc1cccc(C(=O)Nc2cccc(OC(C)=O)c2)c1	i	0.56	3.0%
OCCOCCn1c2ccccc2c2ccccc21	i	-0.15	-3.4%
Cc1[nH]c(=O)[nH]c(=O)c1S(=O)(=O)Nc1ccc(Oc2ccccc2)cc1	i	-0.32	-4.6%
CCCOC(=O)c1sc2nc3c(cc2c1N)C(=O)CCC3	i	0.72	-7.4%
Brc1ccc(-c2nnc3ccc(N4CCN(c5ccccc5)CC4)nn23)cc1	i	-0.35	-3.6%
Cc1nc2cc(C(F)(F)F)ccc2n1C1CCN(CC(=O)N2CCOCC2)CC1	i	-0.73	2.8%
O=C(O)C1CCCCN1S(=O)(=O)c1cccc2nsnc12 (stereo unspecified)	i	0.79	0.9%
O=S(=O)(c1cccc(S(=O)(=O)N2CCC(N3CCCCC3)CC2)c1)N1CCOCC1	i	-0.54	-6.9%
CCCc1[nH]nc2c1C(c1ccc(OC)c(Cn3nnc4ccccc43)c1)C(C#N)=C(N)O2 (stereo unspecified)	i	-0.44	1.7%
COCc1cc(=O)n2[nH]c(-c3ccccc3)cc2n1	i	-1.2	-0.7%
O=C(NCc1cccs1)C1CCCN1C(=O)NC1CCCCC1 (stereo unspecified)	i	1.1	2.3%
O=C(Nc1ccccc1NC(=O)c1ccco1)c1ccco1	i	0.54	2.0%
CCOc1cc2[nH]c(=S)n(CCCN(CC)CC)c(=O)c2cc1OCC	i	.	-2.6%
COc1cccc(-n2c(SCC(=O)N3CCOCC3)nc3c([nH]c4ccccc43)c2=O)c1	i	.	3.8%
CCOC(=O)/C(=N/Nc1ccccc1)c1csc(Nc2ccccc2)n1	i	.	-0.5%
NC(=O)C1CCN(c2ncnc3c2c(-c2ccccc2)cn3-c2ccccc2)CC1	i	0.79	5.7%
Cc1sc2ncnc(SCC(=O)N3CCCC3=O)c2c1C	i	-1.1	-6.7%
O=C(OC1CCOC1=O)c1cncc(Br)c1 (stereo unspecified)	i	-0.7	2.7%
Cc1ccc(S(=O)(=O)N2CCOCC2)cc1NC(=O)COC(=O)CCC(=O)c1cccs1	i	.	-1.5%
CNC(=O)C1CC(=O)N(Cc2ccccc2)C(=Nc2ccc(OC)cc2)S1 (stereo unspecified)	i	-0.22	0.0%
N#CCSc1nnc(-c2cccnc2)n1-c1ccccc1	i	1.1	0.1%
Cc1ccc(C)n1NC(=O)c1ccc(Cl)cc1Cl	i	-0.93	4.8%
Cc1cc(C)c(C#N)c(N2CCSCC2)n1	i	0.1	2.6%
COc1ccc(CCN2C(=O)c3[nH]nc(-c4ccccc4O)c3C2c2cccc(O)c2)cc1OC (stereo unspecified)	i	-0.43	-4.8%
COC(=O)Cc1cc(=O)[nH]c(/N=C(\N)Nc2ccc(C)cc2)n1	i	.	0.0%
CCO/C(=C/c1sc2ccc(OC)cc2[n+]1CCCS(=O)(=O)[O-])CC	i	.	2.2%
Cc1occc1C(=O)Nc1ccc2ccccc2c1	i	0.2	-1.7%

# More compounds
SMILES	MT1-MMP reporter	WNV NS2B-NS3 inh	Hsc70 ATP site
Cc1ccc(Nc2nc(C(=O)NCCCN3CCOCC3)cs2)cc1	i	-0.64	1.0%
CCOC(=O)c1c(C)c(C(=O)N2CCCCCC2)c(C)n1CC	i	-1.5	1.2%
O=C1C2=C(c3ccccc31)[N+](=O)C1CCCCC1N2[O-] (stereo unspecified)	i	.	9.1%
CC1(C)C2CCC1(C)C(OC(=O)CCn1ccnc1)C2 (stereo unspecified)	i	-1.5	-3.5%
CCCN(CCO)Cc1ccc(F)c(Br)c1	i	0.05	1.2%
Cc1nn(-c2ccccc2)c2c1C(c1ccc(O)c(O)c1)N1C(=N2)C(Nc2ccccc2)=Nc2ccccc21 (stereo unspecified)	i	.	3.6%
COc1ccc(N2CC(C)Cn3c2nc2c3c(=O)n(CCc3ccccc3)c(=O)n2C)cc1 (stereo unspecified)	i	1.1	8.7%
O=C(Nc1cccc(-c2cn3cccnc3n2)c1)c1ccco1	i	2.1	-7.6%
O=C(Nc1cccnc1Cl)c1cccnc1Cl	i	.	5.9%
O=C(Nc1cccnc1)c1ccc(CN2CCc3ccccc3C2)cc1	i	-0.73	-7.2%
CCOC(=O)c1c(C)c(C(=O)Nc2cc(OC)ccc2OC)c(C)n1CC	i	-0.97	-1.9%
COc1ccc(-n2nc3ccc(NS(C)(=O)=O)cc3n2)cc1Cl	i	1	-3.4%
COc1ccc(OCCn2cc(/C(N)=N/O)c3ccccc32)cc1	i	.	-1.2%
O=C(Nc1cccnc1)c1cc(-c2ccc(Br)cc2)on1	i	-0.22	-2.0%
O=C(Nc1sc2c(c1C(=O)O)CCC2)c1ccccc1	i	.	-2.5%
Cc1c(O)ccc(C(=O)COc2ccc(F)cc2)c1O	i	.	-6.1%
Cc1ccc(-c2nc(N/N=C/c3cccnc3)c3ccccc3n2)cc1	i	.	4.9%
Cc1ccc(N(C(=O)CC2NC(=O)NC2=O)C2(C(=O)NC3CCCC3)CCCCC2)cc1 (stereo unspecified)	i	-1.2	-2.9%
Cc1ccc(CNc2nc3ccccc3n3nnnc23)cc1	i	-0.47	16%
Cc1nn(C)c(C)c1S(=O)(=O)NC1CCCc2ccccc21 (stereo unspecified)	i	1.4	-1.4%
CN(CCc1ccccn1)Cc1ccc(Cl)cc1	i	1.3	-2.2%
Cc1ccc2c(c1)C1CCCC3C1N2CC(=O)N3Cc1ccccc1 (stereo unspecified)	i	-0.25	1.6%
CC1CN/C(=C\C(=O)c2ccccc2)C(=O)N1 (stereo unspecified)	i	.	-0.2%
COc1ccc(CNc2oc(COc3ccccc3)nc2C#N)cc1	i	0.36	-8.5%

# Single values from the list:
# Cc1nn(C)c(C)c1S(=O)(=O)NC1CCCc2ccccc21 (stereo unspecified) – WNV NS2B-NS3 inh = 1.4
# Cc1ccc2c(c1)C1CCCC3C1N2CC(=O)N3Cc1ccccc1 (stereo unspecified) – Hsc70 ATP site = 1.6%
# COc1ccc(CNc2oc(COc3ccccc3)nc2C#N)cc1 – WNV NS2B-NS3 inh = 0.36
# O=C(Nc1sc2c(c1C(=O)O)CCC2)c1ccccc1 – Hsc70 ATP site = -2.5%
# CN(CCc1ccccn1)Cc1ccc(Cl)cc1 – WNV NS2B-NS3 inh = 1.3

# (more compounds)
SMILES	MT1-MMP reporter	WNV NS2B-NS3 inh	Hsc70 ATP site
CCOC(=O)Cn1c(=O)n(C2CCCC2)c(=O)c2ccccc21	i	-1.4	3.5%
c1ccc(-c2nnc3n2NC(c2ccc4c(c2)OCO4)S3)cc1 (stereo unspecified)	i	-0.39	0.5%
CCN(CC)S(=O)(=O)c1cc(C(=O)NC2=NCCS2)ccc1Cl	i	.	3.5%
COc1cc(OC)cc(C(=O)Nc2ccccc2N2CCOCC2)c1	i	0.25	-7.0%
CCC(C)(C)n1nnnc1CN(Cc1ccc(Cl)cc1)Cc1ccco1	i	-0.78	-1.8%
O=C(OC(C(=O)NC1CCCC1)c1ccccn1)c1cccs1 (stereo unspecified)	i	.	2.1%
CC1(C)C2CCC1(C)C(OC(=O)CSc1nc(N)cc(=O)[nH]1)C2 (stereo unspecified)	i	0.36	-3.6%
CCCCC(CC)C(=O)NCCCN1CCN(CCCNC(=O)C(CC)CCCC)CC1 (stereo unspecified)	i	-0.09	1.5%
CC1Cc2ccccc2N1C(=O)CSc1nnnn1C1CCCC1 (stereo unspecified)	i	.	6.0%
CC(CSc1nc2ccccc2s1)Cn1c(N2CCCC2)nc2c1c(=O)[nH]c(=O)n2C (stereo unspecified)	i	0.45	-1.0%
O=C(CCn1c(=S)oc2ccccc21)Nc1ccc2c(c1)OCCO2	i	-0.82	-3.6%
O=C(Cn1cccc1C(=O)c1ccccc1)NCc1ccccn1	i	-0.11	-3.9%
CC(=O)N1CCc2cc(S(=O)(=O)Nc3ccccc3N3CCN(C)CC3)ccc21	i	-0.19	1.6%
CCOC(=O)c1oc2ccccc2c1NC(=O)c1cccs1	i	-0.16	1.8%
O=C(Nc1nc2ccccc2s1)c1ccc(Cl)s1	i	0.3	-0.1%
CCOc1cc(S(=O)(=O)N2CCCCCC2)ccc1F	i	.	1.9%
Cn1c(SCc2c(F)cccc2Cl)nnc1-c1cnccn1	i	-0.16	-1.3%
O=C(CCn1c(=O)oc2ccccc21)N(Cc1ccccc1)c1ccccn1	i	1.1	-7.9%
O=C(c1cc2nc(-c3ccccc3)cc(-c3ccccc3)n2n1)N1CCN(C(=O)c2ccco2)CC1	i	-0.09	-1.7%
Cc1nnc2sc(-c3ccc(-c4ccc(Cl)c(C(F)(F)F)c4)o3)nn12	i	1.2	-1.9%
O=C(OCC#CCSc1nnc(-c2ccccc2)o1)c1cccs1	i	0.33	5.6%
Cc1cc(C)n2nc(SCc3ncc(-c4ccccc4)o3)nc2n1	i	-1.6	2.4%
CCN1CCc2nc(NC(=O)c3ccc4c(c3)OCCO4)sc2C1	i	0.26	-8.2%

# Screens deposited in PubChem by several laboratories.

# Some of the compounds tested; rates above refer to the full screens.
